# Screening data deposited in PubChem by Broad Institute.
# Yeast UUG start – modulators of yeast start codon fidelity, primary screen, whole organism, S. cerevisiae, single point, plate reader. activity score, % at 18.7 µM. 350,000 tested, 0.13% active. S. cerevisiae UUG-firefly luciferase reporter, luminescence/redox ratio;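 active means replicate mean at a twofold rise or more, about +100% in these data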;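 further: firefly luciferase made from a UUG start codon reports start codon fidelity; reporter light over untreated wells divided by growth signal over untreated wells; some hits fall short of that in this replicate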
# Numbers without * were called inactive.
SMILES,Yeast UUG start
COCC(=O)N1CCCCN2[C@H](CO)[C@@H](c3ccc(-c4ccccc4)cc3)[C@@H]2C1,0.5
COC(=O)C[C@H]1CC[C@@H]2[C@H](COc3ccc(NC(=O)c4cnccn4)cc3C(=O)N2C)O1,-5.8
C[C@H](CO)N1C[C@H](C)[C@H](CN(C)C)Oc2ccc(NS(=O)(=O)c3cccs3)cc2C1=O,-11.7
CO[C@@H]1CN(C)C(=O)c2ccc(NC(=O)C3CC3)cc2OC[C@H](C)NC[C@H]1C,-4.8
COc1ccc(NC(=O)Nc2ccc3c(c2)C(=O)N([C@H](C)CO)C[C@H](C)[C@H](CN(C)C)O3)cc1,8.8
O=C(c1cccc(F)c1)N1CCCCN2[C@H](CO)[C@H](c3ccc(-c4cncnc4)cc3)[C@H]2C1,1.5
COC(=O)N(C)C[C@@H]1OCc2ccccc2-c2ccccc2C(=O)N([C@@H](C)CO)C[C@H]1C,0.3
Cc1cc(C(=O)Nc2cccc3c2O[C@H](CN(C)S(=O)(=O)c2cn(C)cn2)[C@@H](C)CN([C@@H](C)CO)C3=O)n(C)n1,-0.6
CCCNC(=O)Nc1ccc2c(c1)C(=O)N(C)[C@@H]1CC[C@@H](CC(=O)OC)O[C@@H]1CO2,-13.0
C[C@@H]1CN([C@H](C)CO)C(=O)c2cc(NS(=O)(=O)c3ccc(Cl)cc3)ccc2O[C@H]1CN(C)C,-6.6
CCC(=O)N1C[C@H](C)[C@@H](OC)CN(C)C(=O)c2cc(NC(=O)Nc3ccc(Cl)cc3)ccc2OC[C@@H]1C,6.8
Cn1cnc(S(=O)(=O)N2C[C@@H](O)COC[C@H]3O[C@H](CC(=O)NCc4ccc(F)cc4)CC[C@@H]32)c1,-7.6
COc1ccc(C#Cc2ccc([C@@H]3[C@H]4CN(S(=O)(=O)c5ccccc5)CCCCN4[C@H]3CO)cc2)cc1,-8.3
N#Cc1ccc(-c2ccc3c(c2)[C@H]2[C@H](CCN2Cc2ccc4c(c2)OCO4)[C@H](CO)N3)cc1,-3.3
COc1cccc(-c2ccc3c(c2)[C@@H]2[C@@H](CCN2C(=O)c2ccccc2F)[C@@H](CO)N3C)c1,-13.8
C[C@@H]1CN([C@@H](C)CO)C(=O)c2cc(NC(=O)CCC(F)(F)F)ccc2O[C@@H]1CN(C)C(=O)Nc1ccc(C(F)(F)F)cc1,25.7
COCC(=O)NC[C@H]1[C@H](c2ccc(C3=CCCC3)cc2)[C@H](CO)N1C(C)=O,1.5
COCC(=O)N1CC[C@@H]2[C@H]1c1cc(-c3ccc(F)cc3)ccc1N(C)[C@H]2CO,14.8
C[C@@H]1CN([C@@H](C)CO)C(=O)c2cc(NC(=O)Nc3ccc(C(F)(F)F)cc3)ccc2O[C@@H]1CN(C)Cc1ccc(C(=O)Nc2ccccc2N)cc1,-2.3
CC(C)NC(=O)N1C[C@H]2[C@@H](c3ccccc31)[C@H](CO)N2C(=O)c1ccccn1,5.3
C[C@@H]1CN([C@@H](C)CO)C(=O)c2cc(NS(=O)(=O)c3cn(C)cn3)ccc2O[C@@H]1CN(C)Cc1ccc(-c2ccccc2)cc1,-18.6
C[C@@H]1CN([C@H](C)CO)C(=O)c2cccc(NC(=O)NC3CCCCC3)c2O[C@@H]1CN(C)S(C)(=O)=O,-9.4
CCN(C[C@H]1N[C@H](CO)[C@@H]1c1ccc(-c2cccc(F)c2)cc1)C(=O)CN(C)C,1.2
CO[C@H]1CN(C)C(=O)c2cc(NC(=O)C3CCC3)ccc2OC[C@@H](C)N(C(=O)NC(C)C)C[C@@H]1C,-2.0
Cc1cc(C(=O)Nc2cccc3c2O[C@@H](CN(C)C(=O)Nc2c(C)noc2C)[C@@H](C)CN([C@H](C)CO)C3=O)n(C)n1,-14.8
COc1ccc(C#Cc2ccc3c(c2)[C@H]2[C@H](CCN2S(=O)(=O)c2ccc(OC)cc2)[C@@H](CO)N3C)cc1,-21.5
C[C@H]1CN([C@@H](C)CO)C(=O)Cc2cc(NS(=O)(=O)c3ccc(Cl)cc3)ccc2O[C@H]1CN(C)Cc1ccncc1,1.4
CCCNC(=O)Nc1ccc2c(c1)C(=O)N(C)[C@@H]1CC[C@@H](CC(=O)NCCCN(C)C)O[C@H]1CO2,27.0
COc1cccc(S(=O)(=O)N2CC[C@@H]3[C@H](CO)Nc4ccc(-c5ccc(C#N)cc5)cc4[C@@H]32)c1,-6.3
C[C@H](CO)N1C[C@H](C)[C@H](CN(C)Cc2ccc(Oc3ccccc3)cc2)Oc2c(NS(=O)(=O)c3ccc(Cl)cc3)cccc2C1=O,12.5

# Part of the list above, with the structure last:
Yeast UUG start,Molecule
25.7,C[C@@H]1CN([C@@H](C)CO)C(=O)c2cc(NC(=O)CCC(F)(F)F)ccc2O[C@@H]1CN(C)C(=O)Nc1ccc(C(F)(F)F)cc1
1.5,COCC(=O)NC[C@H]1[C@H](c2ccc(C3=CCCC3)cc2)[C@H](CO)N1C(C)=O
14.8,COCC(=O)N1CC[C@@H]2[C@H]1c1cc(-c3ccc(F)cc3)ccc1N(C)[C@H]2CO
-2.3,C[C@@H]1CN([C@@H](C)CO)C(=O)c2cc(NC(=O)Nc3ccc(C(F)(F)F)cc3)ccc2O[C@@H]1CN(C)Cc1ccc(C(=O)Nc2ccccc2N)cc1
5.3,CC(C)NC(=O)N1C[C@H]2[C@@H](c3ccccc31)[C@H](CO)N2C(=O)c1ccccn1
-18.6,C[C@@H]1CN([C@@H](C)CO)C(=O)c2cc(NS(=O)(=O)c3cn(C)cn3)ccc2O[C@@H]1CN(C)Cc1ccc(-c2ccccc2)cc1
-9.4,C[C@@H]1CN([C@H](C)CO)C(=O)c2cccc(NC(=O)NC3CCCCC3)c2O[C@@H]1CN(C)S(C)(=O)=O
1.2,CCN(C[C@H]1N[C@H](CO)[C@@H]1c1ccc(-c2cccc(F)c2)cc1)C(=O)CN(C)C
-2.0,CO[C@H]1CN(C)C(=O)c2cc(NC(=O)C3CCC3)ccc2OC[C@@H](C)N(C(=O)NC(C)C)C[C@@H]1C
-14.8,Cc1cc(C(=O)Nc2cccc3c2O[C@@H](CN(C)C(=O)Nc2c(C)noc2C)[C@@H](C)CN([C@H](C)CO)C3=O)n(C)n1
-21.5,COc1ccc(C#Cc2ccc3c(c2)[C@H]2[C@H](CCN2S(=O)(=O)c2ccc(OC)cc2)[C@@H](CO)N3C)cc1
1.4,C[C@H]1CN([C@@H](C)CO)C(=O)Cc2cc(NS(=O)(=O)c3ccc(Cl)cc3)ccc2O[C@H]1CN(C)Cc1ccncc1

# Further results:
SMILES,Yeast UUG start
O=C(C[C@H]1CC[C@H]2[C@@H](COC[C@H](O)CN2S(=O)(=O)c2cccc(Cl)c2)O1)N1CCOCC1,14.1
CN1c2ccc(-c3ccccc3)cc2[C@@H]2[C@@H](CCN2C(=O)c2ccccn2)[C@H]1CO,1.3
C[C@H]1CN([C@@H](C)CO)C(=O)c2ccccc2-c2ccccc2CO[C@@H]1CN(C)S(=O)(=O)c1ccc(F)cc1,-7.6
COc1ccccc1NC(=O)N1C[C@@H]2[C@H](c3ccccc31)[C@H](CO)N2C(C)=O,13.0
COc1ccc(NC(=O)N2CCCCN3[C@H](CO)[C@H](c4ccc(-c5ccccc5C)cc4)[C@@H]3C2)cc1,-7.1
CC(C)NC(=O)N(C)C[C@@H]1Oc2ccc(NC(=O)CCN3CCOCC3)cc2CC(=O)N([C@H](C)CO)C[C@@H]1C,14.9
CC(=O)NC[C@@H]1[C@@H](c2ccc(C3=CCCCC3)cc2)[C@@H](CO)N1C(=O)NC(C)C,-4.8
CC(=O)NC[C@H]1[C@H](c2ccc(-c3ccccc3F)cc2)[C@H](CO)N1C(C)=O,-7.1
C[C@@H]1CN([C@H](C)CO)C(=O)c2cccc(NC(=O)Nc3ccc(C(F)(F)F)cc3)c2O[C@@H]1CN(C)S(=O)(=O)c1ccc(Cl)cc1,-20.7
N#Cc1ccc(-c2ccc3c(c2)[C@H]2[C@H](CCN2Cc2ccc4c(c2)OCO4)[C@@H](CO)N3)cc1,-10.6
CCCNC(=O)N1[C@H](CO)[C@H](c2ccccc2)[C@@H]1CNC(=O)c1ccccc1,24.9
O=C(NC[C@@H]1[C@H](c2ccccc2)[C@@H](CO)N1C(=O)Cc1cccnc1)C1CC1,-19.1
Cc1noc(C)c1NC(=O)Nc1ccc2c(c1)CC(=O)N([C@H](C)CO)C[C@H](C)[C@@H](CN(C)Cc1ccc(Cl)c(Cl)c1)O2,18.3
Cc1ccc(S(=O)(=O)N(C)C[C@@H]2Oc3ccc(N(C)C)cc3CC(=O)N([C@H](C)CO)C[C@H]2C)cc1,8.8
CC(C)NC(=O)N1C[C@H]2[C@@H](c3ccccc31)[C@@H](CO)N2C(=O)c1ccccn1,-3.6
CCN1[C@H](C(=O)NCc2ccccc2)[C@@H](CO)[C@@H]2Cn3c(ccc(-c4ccccc4OC)c3=O)[C@@H]21,30.0
CC(C)NC(=O)N1[C@@H]2CN(C(=O)Nc3ccccc3)c3ccccc3[C@@H]2[C@@H]1CO,-9.2
O=C(C[C@@H]1CC[C@H]2[C@@H](COC[C@H](O)CN2S(=O)(=O)c2ccccc2)O1)NCC1CCCCC1,28.0
CCN(C[C@@H]1N[C@@H](CO)[C@H]1c1ccc(-c2ccc(F)cc2)cc1)C(=O)CN(C)C,6.6
O=C(Nc1ccccc1F)N1C[C@@H]2[C@H](c3ccccc31)[C@H](CO)N2C(=O)Cc1ccccc1,-4.9
COc1ccc(NC(=O)Nc2ccc3c(c2)C(=O)N([C@@H](C)CO)C[C@@H](C)[C@@H](CN(C)C(=O)Nc2ccc(C(F)(F)F)cc2)O3)cc1,-5.8
O=S(=O)(c1cccs1)N1CCCCN2[C@H](CO)[C@@H](c3ccc(/C=C/c4ccccc4)cc3)[C@@H]2C1,-13.9
CCCNC(=O)C[C@@H]1C[C@@H]2c3cc(NC(=O)Nc4ccc(OC)cc4)ccc3O[C@@H]2[C@H](CO)O1,18.8
COC(=O)N(C)C[C@H]1OCc2ccccc2-c2c(n(C)c3ccccc23)C(=O)N([C@H](C)CO)C[C@H]1C,8.1
COc1ccccc1NC(=O)N1CCCCN2[C@H](CO)[C@H](c3ccc(C#CC4CCCC4)cc3)[C@H]2C1,-6.6
O=C(Cc1ccccn1)N1[C@H](CO)[C@H]2c3ccccc3NC[C@H]21,2.4
Cc1noc(C)c1NC(=O)Nc1cccc2c1O[C@H](CN(C)C)[C@@H](C)CN([C@H](C)CO)C2=O,-5.5
Cc1noc(C)c1NC(=O)Nc1ccc2c(c1)C(=O)N([C@H](C)CO)C[C@@H](C)[C@@H](CN(C)S(=O)(=O)c1cn(C)cn1)O2,-4.1
O=C(C[C@H]1CC[C@H]2[C@@H](COC[C@H](O)CN2Cc2cccc(Cl)c2)O1)N1CCOCC1,-14.9
COCC(=O)Nc1ccc2c(c1)OC[C@@H](C)N(C(=O)COC)C[C@H](C)[C@@H](OC)CN(C)C2=O,12.2
CN1CCN(C(=O)C[C@H]2C[C@H]3c4cc(NC(=O)Nc5ccc(F)cc5)ccc4O[C@H]3[C@H](CO)O2)CC1,-4.9
COc1ccccc1CN1[C@H](CO)[C@H]2c3ccccc3N(C(=O)C3CCCCC3)C[C@H]21,-9.3
CCC(=O)Nc1ccc2c(c1)OC[C@H](C)N(C(=O)C1CCC1)C[C@@H](C)[C@H](OC)CN(C)C2=O,10.8
C[C@H](CO)N1C[C@H](C)[C@H](CN(C)C(=O)Nc2ccccc2)OCc2ccccc2-c2ccccc2C1=O,-12.3
CN1c2ccc(-c3cccc(F)c3)cc2[C@H]2[C@H](CCN2C(=O)C2CC2)[C@H]1CO,38.0
CO[C@H]1CN(C)C(=O)c2cc(NC(=O)C3CC3)ccc2OC[C@H](C)N(Cc2ccc(F)cc2)C[C@H]1C,-6.4
COc1cccc(-c2ccc([C@H]3[C@H](CO)N4CCCCN(C(=O)NC(C)C)C[C@@H]34)cc2)c1,-9.6
COc1ccc(CN(C)C[C@@H]2Oc3c(NS(=O)(=O)c4ccc(Cl)cc4)cccc3C(=O)N([C@@H](C)CO)C[C@H]2C)cc1,-8.6
CC(C)NC(=O)N(C)C[C@H]1Oc2c(NS(=O)(=O)c3ccc(F)cc3)cccc2C(=O)N([C@@H](C)CO)C[C@H]1C,-2.1
O=C(c1ccccc1)N1C[C@@H]2[C@H](c3ccccc31)[C@H](CO)N2Cc1ccccc1F,-1.1
CCCNC(=O)N1C[C@@H]2[C@H](c3ccccc31)[C@@H](CO)N2CC1CCCC1,-5.0
C[C@H]1CN([C@@H](C)CO)C(=O)Cc2cc(NC(=O)NC3CCCCC3)ccc2O[C@@H]1CN(C)S(=O)(=O)c1ccc(F)cc1,15.9
CCC(=O)N1[C@H](CO)[C@@H](c2ccc(-c3ccccc3)cc2)[C@@H]1CN(C)C(C)=O,11.1
CC(C)(O)C#Cc1ccc([C@H]2[C@@H](CO)N3CCCCN(C(=O)c4cccc(F)c4)C[C@@H]23)cc1,16.7
COc1ccccc1NC(=O)N1C[C@@H](C)[C@H](OC)CN(C)C(=O)c2ccc(NC(=O)c3cc(C)on3)cc2OC[C@H]1C,-2.9
CN(C)C(=O)c1ccc(-c2ccc3c(c2)[C@H]2[C@H](CCN2C(=O)c2cnccn2)[C@@H](CO)N3)cc1,-6.0
CO[C@H]1CN(C)C(=O)c2ccc(NC(C)=O)cc2OC[C@H](C)N(S(=O)(=O)c2cn(C)cn2)C[C@H]1C,12.7
COCC(=O)Nc1ccc2c(c1)C(=O)N(C)C[C@@H](OC)[C@H](C)CN(Cc1cccc(F)c1)[C@@H](C)CO2,-4.8
CN(C[C@@H]1N[C@@H](CO)[C@@H]1c1ccc(C2=CCCCC2)cc1)S(C)(=O)=O,-11.8
O=C(C[C@@H]1CC[C@@H]2[C@H](COC[C@H](O)CN2Cc2cccc(F)c2)O1)NCC1CCCCC1,-0.9

# Continued:
SMILES,Yeast UUG start
COc1ccc(S(=O)(=O)Nc2ccc3c(c2)C(=O)N([C@@H](C)CO)C[C@H](C)[C@H](CN(C)Cc2ccncc2)O3)cc1,-4.3
C[C@@H]1CN([C@@H](C)CO)C(=O)c2cc(NC(=O)Nc3ccc(C(F)(F)F)cc3)ccc2O[C@H]1CN(C)Cc1ccc(C(=O)O)cc1,3.7
CCCC(=O)Nc1ccc2c(c1)C(=O)N(C)[C@H]1CC[C@@H](CC(=O)NCC3CC3)O[C@@H]1CO2,-15.4
COc1ccccc1NC(=O)N1C[C@H](O)COC[C@@H]2O[C@@H](CC(=O)NCCc3ccccc3)CC[C@H]21,13.0

# An excerpt; rates above refer to the full screens.
